Source: PubChem BioAssay
Vif TR-FRET – HIV-1 Vif–A3G interaction blockers – biochemical, TR-FRET, GST-Vif 1-94, biotin-A3G peptide, dose response retest, primary screen (AID 1117319) | TR-FRET GST-Vif / biotin-A3G peptide binding; higher % means a stronger effect; test concentration not given here; strong numbers were not always called active | inhibition, %, or IC50 in µM where a hit was titrated | 0.57% of 260,000 active;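 active = above the screen mean plus three standard deviations and confirmed in dose response; inconclusive = results disagree or hit not tested in dose response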;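 also: Vif residues 1-94 fused to GST binding biotinylated APOBEC3G peptide 110-148; 0% = full assay without inhibitor and 100% = GST in place of GST-Vif; retest series ran down from 100 µM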
Beta2AR agonist – activates human beta-2 adrenergic receptor causing internalization. 0.43% of 340,000 active. AID 504454. P07550. Am2.2-beta2AR cells, FAP receptor internalization, flow cytometry; reference of the scale not given here. response, % (no concentration beside the values);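 active = response above a set limit, near 3 SD of response in nonfluorescent compounds, cut at about 42% in these data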;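 also: stock transfer was 100 nL into about 11 µL; a reference agonist was the positive control; negative values mostly stem from fluorescent compounds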
Target sequence (P07550 whole entry, looked up): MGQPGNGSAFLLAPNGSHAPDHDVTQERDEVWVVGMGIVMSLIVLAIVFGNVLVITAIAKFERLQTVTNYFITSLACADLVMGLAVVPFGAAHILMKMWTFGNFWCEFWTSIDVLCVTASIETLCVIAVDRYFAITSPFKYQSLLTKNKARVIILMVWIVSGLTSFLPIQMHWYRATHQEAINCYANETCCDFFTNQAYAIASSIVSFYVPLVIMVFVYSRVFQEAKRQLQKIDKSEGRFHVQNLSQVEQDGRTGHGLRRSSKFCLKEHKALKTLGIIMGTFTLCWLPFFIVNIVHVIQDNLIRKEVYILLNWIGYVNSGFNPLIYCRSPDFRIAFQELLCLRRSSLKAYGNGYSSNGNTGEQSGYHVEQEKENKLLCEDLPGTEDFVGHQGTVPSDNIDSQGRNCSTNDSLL
UCH37 DUB inh – inhibitors of human deubiquitinating enzyme UCH37; Q9Y5K5; purified proteasome/UCH37, Ub-AMC cleavage fluorescence; inhibition, % (no concentration beside the values); 0.33% of 330,000 active; AID 588478;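 active = mean of two replicates above 20%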;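 also: 0% = compound-free wells with enzyme and 100% = wells lacking proteasome; stock transfer was 100 nL into about 20 µL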
Target sequence (Q9Y5K5 whole entry, looked up): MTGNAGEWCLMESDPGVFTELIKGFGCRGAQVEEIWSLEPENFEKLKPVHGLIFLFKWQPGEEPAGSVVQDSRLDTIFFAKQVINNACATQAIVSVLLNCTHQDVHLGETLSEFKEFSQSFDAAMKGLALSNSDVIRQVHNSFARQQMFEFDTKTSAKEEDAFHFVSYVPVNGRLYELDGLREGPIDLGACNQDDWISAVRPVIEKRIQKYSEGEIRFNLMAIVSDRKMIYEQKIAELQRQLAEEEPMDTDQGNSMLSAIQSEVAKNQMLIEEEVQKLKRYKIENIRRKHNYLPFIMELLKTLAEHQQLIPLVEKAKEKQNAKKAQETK
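Material: Human UCH37 enzyme supplied as purified proteasome complex | Schedule: 30 min preincubation with enzyme, 25 min cleavage at room temperature | Detection: AMC fluorescence 355/460 nm | Measure: % inhibition of Ub-AMC cleavage fluorescence | Controls: Wells without proteasome as full block, compound-free enzyme plus substrate as uninhibited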
Bfl-1 A1 inh – inhibitors of the anti-apoptotic protein A1, read as caspase activation | 0.066% of 330,000 active | caspase activation, % (no concentration beside the values) | AID 2462 | MEF A1-2A-BIM cells, Caspase-Glo 3/7 luminescence, 3 h; percent of clofoctol response, vehicle zero;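 active = over half of replicate activation scores above 10%, or exactly half above 10 with the replicate mean above 10; inconclusive = replicate mean below 10 yet half the replicates above 10; inactive = over half of replicates below 10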;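 also: wells of about 30 µL received 50 nL stock; many hits fall short of the cut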
HNF4A DNA FP – change in binding of human HNF4 alpha to DNA; P41235; HNF4a-FITC DNA binding, fluorescence polarization, 1 h; activity change, % at 10 µM; 0.3% of 360,000 active; AID 1224865; in the data active = activity change above about 30%, passing the limit was not always enough;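 also: controls were the assay level and a saturating level of protein; the project sought stronger binding though the title names inhibitors; some compounds called inactive have numbers as strong as hits; positive values seem to mean higher polarization but the record does not say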
Ecoli growth – blocks Escherichia coli growth. OD600, 23 h; active compounds read low. OD600 absorbance (concentration not given with the values). 0.21% of 330,000 active. AID 1053175;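 active = OD600 absorbance below the run mean of sample wells minus 3.6 SD, in any replicate, cut at about 0.56 in these data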;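 also: stock transfer was 300 nL into about 60 µL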
LANA-H2B inh – blocks KSHV LANA binding to histone H2A/H2B; Q9QR71; cell-free LANA-H2A/H2B peptide, fluorescence polarization; inhibition, % (concentration not given with the values); 0.6% of 320,000 active; AID 2629; in the data active = inhibition mostly above about 10%, no sharp cut-off; inactive = mostly below about 6.7%;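 also: stock transfer was 7.5 nL into about 10 µL; 0% = median of vehicle wells and 100% = median of positive control wells; one replicate is shown; the record names a cut of 25% in any replicate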
The depositor's hits bear a star; i = inactive; ? = inconclusive; / = no result given; & = joins results of further samples. This is a random part of the collection; any-hit rate near 2.1%.

The line under a structure holds: Vif TR-FRET	Beta2AR agonist	UCH37 DUB inh	Bfl-1 A1 inh	HNF4A DNA FP	Ecoli growth	LANA-H2B inh
O=S(=O)(Nc1ccncc1Cl)c1ccccc1
 : 1.9%	-7.3	1.5	0.8	-1.9	0.703	-2.2
CCOC(=O)N1CCC(NC(=O)c2cccs2)CC1
 : -10.6%	-4.9	1.0	-0.1	-4.0	0.686	3.3
COc1ccccc1NC(=O)COc1cc(Br)c(CNCCCN2CCOCC2)cc1OC
 : -4.6%	3.8	3.2	0.4	3.4	0.685	0.8
Cn1nnnc1SCC(=O)NCC(=O)c1ccccc1
 : -9.0%	7.4	0.9	-0.2	-2.7	0.707	0.5
Cc1[nH]c(C)c(S(=O)(=O)NCc2ccco2)c1C(=O)N1CCCCC1
 : -5.9%	-2.2	1.3	-2.4	3.4	0.669	5.3
CCOC(=O)C1CCCCN1Cc1cccc(OCc2ccccc2)c1 (stereo unspecified)
 : -4.5%	-2.4	2.0	-0.1	-1.0	0.638	-0.2
COC(=O)c1ccc2nc(NC(=O)C3CC3)sc2c1
 : /	-9.5	/	-0.9	-0.3	/	0.0
CC(=O)Nc1ccc(Nc2ncnc(N)c2[N+](=O)[O-])cc1
 : /	1.2	2.1	0.0	5.6	0.647	1.3
Cc1ccc(C)c(N2CCN(S(=O)(=O)c3ccc4[nH]c(=O)c(=O)[nH]c4c3)CC2)c1
 : 1.5%	7.8	1.2	-0.3	-1.2	0.673	-3.1
O=C(O)c1ccc(NC(=S)Nc2ccccc2)cc1
 : 15.5%	-0.8	2.4	-0.8	5.1	0.617	-5.3
COc1ccccc1OCC(O)Cn1c(=N)n(Cc2ccccc2)c2ccccc21 (stereo unspecified)
 : -0.6%&-4.0%	16.6	3.7	0.4	2.6	0.644	0.5
CCc1ccc2[nH]c(C(=O)N(C)c3ccc(F)cc3F)cc2c1
 : 3.7%	-0.7	1.6	1.8	3.8	0.625	1.4
Cc1ccc(C(C(=O)NC2CCCC2)N(C(=O)CNC(=O)c2cccs2)c2cccnc2)o1 (stereo unspecified)
 : 2.9%	-3.6	2.7	1.0	-1.6	0.674	6.5
CCN(CC)c1ccc(/C=N/NC(=O)c2ccc3nc[nH]c3c2)c(O)c1
 : ?	18.1	/	-0.6	2.2	/	8.5
CCOC(=O)C1C(c2ccccc2)C(C(=O)OCC)S(=O)(=O)C(CCN(CC)CC)S1(=O)=O (stereo unspecified)
 : -1.1%	3.3	3.3	?	-1.1	0.689	-1.5
CC(C)OC(=O)c1c(NC(=O)CCn2nnc3ccccc32)sc2c1CCCC2
 : 1.9%	15.7	-0.8	-0.1	1.1	0.679	-0.4
Cc1cccc(OCCCC(=O)NNC(=O)c2ccncc2)c1
 : -2.4%	3.1	0.4	/	-0.7	0.658	/
COc1cccc(-c2cc(C(=O)Nc3ccc(N(C)C(C)=O)cc3)c3cc(Br)ccc3n2)c1
 : /	2.5	3.2	0.0	5.7	0.641	2.1
COc1ccc(C(=O)Nc2ccc(-c3ccc(C)o3)cc2)cc1S(=O)(=O)N1CCOCC1
 : -6.7%	18.5	-12.9	0.8	-2.2	0.729	3.7
COC(=O)c1nn(-c2nc(-c3ccc(OC)c(OC)c3)cc(C(F)(F)F)n2)cc1[N+](=O)[O-]
 : 8.2%	4.6	1.9	-0.5	-4.7	0.651	-2.2
CCn1cc(SCC(=O)Nc2cc(C)on2)c2ccccc21
 : 4.0%	6.8	2.5	0.4	-1.5	0.734	4.9
COc1cc(-c2cc(=O)c3c(O)c(OC)c(OC)c(OC)c3o2)cc(OC)c1OC
 : /	7.7	3.8	-1.0	1.6	0.772	-3.9
O=C(c1cnn2c(C(F)(F)F)cc(-c3cccs3)nc12)N1CCCC1
 : /	1.8	-72.0	0.4	0.3	0.72	6.6
CCS(=O)(=O)C(=C1Nc2ccccc2N1)S(=O)(=O)CC
 : 14.6%	0.0	2.8	-0.2	0.0	0.776	4.7
Cc1oc2cc3oc(=O)c(CC(=O)NCC(=O)N[C@@H](C(=O)O)c4ccccc4)c(C)c3cc2c1C
 : /	-14.9	-32.7	-0.1	-3.1	0.748	-9.5
Cn1c(=O)c2c(nc(SCC(=O)c3ccc(F)cc3)n2C)n(C)c1=O
 : 7.6%	2.3	1.2	-0.4	2.0	0.745	-5.4
Cc1cc(NC(=S)NC(=O)c2ccco2)c2ccccc2n1
 : -12.0%	-28.5	5.7	-0.8	-2.8	0.693	16.6*
CC(=O)Nc1ccc(S(=O)(=O)NC(C)(C#N)C2CC2)cc1 (stereo unspecified)
 : /	-0.5	0.9	-1.6	-2.6	0.714	5.4
O=C(COC(=O)c1ccc(Br)cc1)NC1CCCC1
 : /	-7.6	3.1	-0.4	5.0	0.691	7.1
CCCCCCCCCC(=O)N[C@@H]1c2cc(OC)c(OC)cc2C[C@H]1OCc1ccccc1
 : 5.5%	8.6	0.4	/	1.3	0.719	/
CC(C)c1ccc(N=Cc2c(O)c3ccccc3oc2=O)cc1
 : /	-36.3	-7.0	0.4	3.0	0.7	1.3
CCCCN(C(=O)c1cccc(S(=O)(=O)N2CCN(C)CC2)c1)c1c(N)n(CCCC)c(=O)[nH]c1=O
 : -6.5%	1.0	-2.3	0.4	4.1	0.674	-2.2
Cc1ccc(OCC(=O)Nc2nnn(C)n2)c(C)c1
 : 0.9%	-1.2	1.1	-0.3	3.3	0.693	1.8
COc1ccc(S(=O)(=O)N2CCOCC2)cc1NC(=O)CCc1c[nH]c2ccccc12
 : -3.0%	-3.3	5.4	-1.0	-20.5	0.714	0.9
Cc1cc(S(=O)(=O)NCCCN2CCOCC2)c(C)cc1Cl
 : /	-1.2	3.1	1.1	-0.6	0.705	4.7
CCN(C(=O)c1cc(S(=O)(=O)N2CCCCC2)c[nH]1)c1ccc(OC)cc1
 : /	-2.5	2.9	0.7	-1.4	0.712	-0.6
C/C(=C\c1ccccc1)C(=O)Nc1ccc(S(=O)(=O)Nc2ncccn2)cc1
 : 10.4%	3.5	3.1	1.0	1.3	0.726	2.5
CCOc1ccc(Cl)cc1CSc1ncn[nH]1
 : 27.2%	-1.2	2.7	0.1	1.9	0.686	0.1
Cc1cc(C)c2c(n1)nn1c(C3CC3)cc(C(F)(F)F)nc21
 : -5.1%	-8.8	-24.4	1.1	1.5	0.75	4.3
CCCCn1nc2cc(C(=O)N(CC)c3ccc(OC)cc3)ccc2c1OCC
 : -3.2%	0.8	-31.7	1.9	-3.6	0.628	-4.6
COc1ccc(-c2nnc(SCC(=O)NC(C)c3ccccc3)o2)cc1 (stereo unspecified)
 : -2.6%	5.7	-2.6	-0.7	4.8	0.752	-5.5
Cn1c(SCc2ccc(Br)cc2)nc2c(c1=O)SCC2
 : -0.3%	2.6	/	0.7	-0.5	/	-3.1
C=CCn1c(SCC(=O)c2[nH]c(C)c(C(C)=O)c2C)nnc1-c1ccncc1
 : 7.6%	1.7	4.3	-0.7	-2.3	0.716	-7.7
Cc1ccc(S(=O)(=O)N2CCC[C@H]2C(=O)Nc2ccccc2Cl)cc1
 : -7.9%	0.7	-0.1	-0.3	0.5	0.633	0.1
O=S(=O)(c1ccccc1)N(Cc1ccccc1)c1ccccn1
 : -1.2%	-0.8	0.9	1.9	2.7	0.692	0.7
O=C(Nc1nnc(S(=O)(=O)N2CCCC2)s1)c1cccc([N+](=O)[O-])c1
 : /	2.0	5.5	1.0	0.8	0.712	-1.9
O=C1CCC(C(=O)N2CCCO2)CN1Cc1cccc(C(F)(F)F)c1 (stereo unspecified)
 : /	7.0	0.0	/	-0.2	0.654	/
O=C(/C=C/c1ccc(F)cc1)N1CCN(Cc2ccccc2)CC1
 : /	-7.7	1.1	-1.1	1.4	0.622	-5.0
CCS(=O)(=O)N1CCN=C1SCc1cccnc1
 : -5.0%	3.0	3.0	0.9	-0.4	0.732	-0.8
O=C(O)C1CCCN1c1ncccn1 (stereo unspecified)
 : 0.9%	-0.7	3.6	0.1	-1.0	0.65	1.5
Cc1ccc(C)c(C2=CSC3=NCCN23)c1
 : 6.0%	-4.9	4.4	0.2	0.5	0.767	4.3
Cc1nn(CC(=O)N2CCOCC2)c(C)c1[N+](=O)[O-]
 : 6.1%	2.2	-2.3	0.7	-2.4	0.667	1.4
Cc1onc(-c2ccc(Cl)cc2Cl)c1-c1csc(COc2ccccc2)n1
 : 6.8%	8.5	1.2	0.8	-8.6	0.671	3.6
COC(=O)C1=C(C)N(c2ccccc2)/C(=C/c2ccco2)C1=O
 : ?	-13.0	1.7	0.6	-1.2	0.701	8.5
COc1ccccc1C(CNC(=O)c1cccc(S(=O)(=O)NCc2ccccc2)c1)N(C)C (stereo unspecified)
 : -2.9%	-5.0	3.4	1.3	-1.2	0.701	-1.2
O=C(NC1CC1)c1cc(=S)[nH]c2ccccc12
 : 0.3%	1.6	2.9	1.9	-2.0	0.708	1.4
O=C1Nc2ccccc2OCc2c1cccc2[N+](=O)[O-]
 : /	-1.9	1.2	0.1	-2.7	0.738	1.6
[N-]=[N+]=CC(=O)C(O)(c1ccccc1)C(Cl)c1ccccc1 (stereo unspecified)
 : /	-2.3	5.9	0.8	-2.3	0.68	-0.7
CC(OC(=O)c1ccc(Br)c(S(=O)(=O)N2CCOCC2)c1)C(=O)NC1CCCCC1C (stereo unspecified)
 : 4.3%	6.8	0.4	0.2	-3.9	0.679	-2.7
O=C(COC(=O)c1cccnc1Nc1cccc(C(F)(F)F)c1)NCc1ccc2c(c1)OCO2
 : 4.0%	-1.5	-14.8	0.8	5.4	0.726	-14.1

Next compounds follow:
The line under a structure holds: Vif TR-FRET	Beta2AR agonist	UCH37 DUB inh	Bfl-1 A1 inh	HNF4A DNA FP	Ecoli growth	LANA-H2B inh
O=C(CNC(=O)/C(=C\c1ccccc1)NC(=O)c1ccc(Br)cc1)OCc1ccccc1
 : 73.3%	-1.6	0.6	0.3	1.2	/	2.8
O=C(NN1C(=O)c2ccc3c4c(ccc(c24)C1=O)CC3)c1ccc(Br)cc1
 : 6.2%	-5.0	i	-0.4	1.8	0.683	1.1
CCC1(c2ccccc2)NC(=O)N(CC(=O)Nc2ccc(S(=O)(=O)NC3=NCCCCC3)cc2)C1=O (stereo unspecified)
 : -0.8%	-1.9	-0.4	-0.5	1.8	0.656	-2.7
Cc1ccc(S(=O)(=O)N2CCC[C@H]2C(=O)OCc2nc3ccccc3s2)cc1
 : -1.1%	1.1	0.8	/	0.2	0.685	/
COc1ccc(C2=CCCCCC2)c(OC)c1OC
 : -4.9%	-6.4	2.0	/	-0.8	0.678	/
COc1ccc(OC)c(NC(=O)CN(C)CC(=O)Nc2ccccc2Br)c1
 : 6.0%	-1.7	0.9	0.3	-1.4	0.738	0.4
CNC(=O)CN1C(=O)c2ccccc2S1(=O)=O
 : -1.4%	-3.4	5.6	-0.1	1.5	0.758	-2.5
COc1ccc(CCNc2oc(COc3ccccc3F)nc2C#N)cc1OC
 : 2.8%	10.8	4.2	-0.7	-2.4	0.736	1.9
COc1ccc(N2CCN(C(=O)C3CCCN(S(=O)(=O)c4ccc5c(c4)oc(=O)n5C)C3)CC2)cc1 (stereo unspecified)
 : /	-24.8	2.6	0.9	-1.6	0.662	-2.1
CN1c2ccc([N+](=O)[O-])cc2C(C)(C)C12C=Cc1cc(C(=O)O)ccc1O2 (stereo unspecified)
 : 3.4%	2.4	10.0	1.0	12.3	0.691	0.8
COc1ccc(CCC2CCNCC2)cc1
 : -0.2%	-2.7	0.6	1.1	-0.8	0.638	6.0
COc1ccc(C(=O)c2c(-c3ccc(OC)cc3)oc3ccc(-c4cc(OC)c(OC)c(OC)c4)cc23)cc1
 : /	3.1	-0.2	0.9	-2.8	0.729	0.3
CCN(c1ccccc1)S(=O)(=O)c1ccc(C(=O)NNC(=O)c2ccccc2F)cc1
 : 88.8%	2.2	5.2	-0.1	0.9	0.645	0.7
